A647 fluor: A647 region autofluorescence; AID 592; Compound fluorescence, A647 channel (570/671 nm), Tris buffer; max dye-equivalent concentration, M; 59,000 tested, under 10 active; active means above 1 µM dye equivalent; inconclusive means 0.1 to 1 µM; inactive means 0.1 µM or less;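 note: values scaled relative to a standard on each plate; highest value over a series up to 38 µM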
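Each compound's intrinsic fluorescence at 570 nm excitation and 671 nm emission is measured across its concentration series in 100 mM Tris, pH 8.0, after 15 min at room temperature, and reported relative to an A647 curve.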
A488 autofl: compound autofluorescence in A488 spectral region; compound autofluorescence, A488 spectral region, dye equivalency; active compounds read high; max dye equivalency, M; 0.1% of 59,000 active; AID 591; active = above 10 nM dye equivalent; inconclusive = 1 to 10 nM; inactive = 1 nM or less; about half of its hits are not listed in these tables;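 note: highest value over a series up to 38 µM; compound alone in buffer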
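Spectroscopic profiling in the A488 region: compounds in pH 8.0 Tris (100 mM), 15 min RT, CCD imaging with 480 nm excitation and 540 nm emission; responses normalized against A488 dye standards.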
Resorufin autofl: resorufin region autofluorescence. Compound fluorescence, resorufin region 547/598 nm, buffer; active compounds read high. max dye-equivalent concentration, M. 0.04% of 59,000 active. AID 588; active = above 10 nM dye equivalent; inconclusive = 1 to 10 nM; inactive = 1 nM or less; a few of its hits are not listed in these tables; note: highest value over a series up to 38 µM
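Compounds in 100 mM Tris buffer, pH 8.0, incubated 15 min at room temperature, then read with 547 nm excitation and 598 nm emission filters. Fluorescence was converted to dye-equivalent concentration using an on-plate six-point resorufin standard curve.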
TSHR agonist: agonists of human thyroid stimulating hormone receptor | HEK293-CNG-TSHR cells (CNG channel as cAMP sensor), membrane potential dye, cAMP | Potency, µM (titrated, usually from 57.1 µM), inactives show at the highest dose activation, hits mostly activators | 0.48% of 73,000 active | AID 926; active = well fitted activation curve of enough size with the parental cells flat; inconclusive = any curve in the parental cells; inactive = parental cells flat and receptor cells flat or falling; note: potency is the fitted concentration of half-maximal effect; % of control where 0% means no effect; weak receptor curves with flat parental cells got no call and are not listed
Target sequence (P16473 whole entry, looked up): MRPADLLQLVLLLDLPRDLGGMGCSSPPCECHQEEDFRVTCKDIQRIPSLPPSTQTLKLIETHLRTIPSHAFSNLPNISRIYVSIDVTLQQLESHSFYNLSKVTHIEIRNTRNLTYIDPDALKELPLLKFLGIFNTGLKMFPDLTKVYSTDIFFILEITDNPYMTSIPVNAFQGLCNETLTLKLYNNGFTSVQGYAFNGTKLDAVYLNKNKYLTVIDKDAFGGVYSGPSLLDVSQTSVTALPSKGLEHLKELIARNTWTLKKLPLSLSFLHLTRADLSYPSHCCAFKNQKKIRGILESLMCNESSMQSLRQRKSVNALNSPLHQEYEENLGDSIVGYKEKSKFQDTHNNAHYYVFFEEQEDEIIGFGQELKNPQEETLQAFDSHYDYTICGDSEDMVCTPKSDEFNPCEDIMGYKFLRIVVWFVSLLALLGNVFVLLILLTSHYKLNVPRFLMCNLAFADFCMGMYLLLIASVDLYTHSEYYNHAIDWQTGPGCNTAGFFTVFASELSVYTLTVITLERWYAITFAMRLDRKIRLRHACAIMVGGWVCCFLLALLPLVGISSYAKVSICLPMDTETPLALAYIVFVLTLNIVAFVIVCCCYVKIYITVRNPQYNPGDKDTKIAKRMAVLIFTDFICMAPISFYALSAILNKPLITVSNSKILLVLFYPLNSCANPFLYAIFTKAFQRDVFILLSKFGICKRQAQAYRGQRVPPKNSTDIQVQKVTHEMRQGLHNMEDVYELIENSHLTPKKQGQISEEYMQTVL
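HEK 293 cells stably expressing TSHR and a cAMP-gated CNG channel; parental CNG-only cells as counterscreen. Cells preloaded 60 min with membrane potential dye plus 100 uM RO 20-1724, then compound 30 min; fluorescence read at 590 nm.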
AID923: qHTS Assay for Allosteric/Competitive Inhibitors of Caspase-1: Spectroscopic Profiling in AFC Spectral Region | compound fluorescence, AFC spectral region (405/520 nm); almost no hit is shown here | Potency, µM (doses to about 57.5 µM), for the others: top-dose fluorescence increase, most hits filed as activators | 1.1% of 75,000 active; active = well fitted activation curve with a large enough effect; inconclusive = small, poorly fitted or top-dose-only effect;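 note: potency is the fitted concentration of half-maximal effect; 0% is about no effect; scaled to a free AFC standard on each plate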
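Titrations up to 57 uM read every 20 sec for 3 min (405/520 nm) with 50 nM caspase 1 and 5 uM Ac-WEHD-AFC, pH 7.5 HEPES buffer. Fluorescence-vs-time intercept gave baseline, scaled against on-plate AFC standard.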
Active calls of the source: *; [ ] = another dose, or the depositor's remark. Not all compounds are listed, so the mix of outcomes need not match the whole.

Screening CN(C(=O)c1cccc(C#N)c1)c1nnc(-c2ccncc2)s1 returned A647 fluor 5.08e-08, A488 autofl inactive, Resorufin autofl inactive, TSHR agonist 4.8% and AID923 2.2%.
`COc1ccc(-c2nnn(CC(=O)Nc3sc4c(c3C#N)CCCC4)n2)cc1` gave A647 fluor 4.8e-09, A488 autofl inactive, Resorufin autofl inactive and AID923 -0.3%.
For COc1ccc(Cl)cc1N(CC(=O)Nc1ccc2c(c1)OCCO2)S(C)(=O)=O the results were TSHR agonist 8.2% and AID923 -4.0%.
`Cn1c(=O)cc(OCCCC(=O)Nc2ccc3c(c2)OCCO3)c2ccccc21` gave A647 fluor 6.2e-09, A488 autofl inactive, Resorufin autofl inactive, TSHR agonist -0.7%[11.4 µM] and AID923 0.0%.
`O=C(NCc1ccccn1)C1CCN(S(=O)(=O)N2CCCCC2)CC1` gave A647 fluor 1e-09, A488 autofl inactive, Resorufin autofl inactive and AID923 0.4%.
Screening CN(c1ccc(O)cc1)c1nc(-c2ccccc2)cs1 returned A647 fluor 3.33e-08, A488 autofl inactive, Resorufin autofl inactive, TSHR agonist inconclusive and AID923 -2.1%.
For CCCC[C@]1(C2CCCC2)Cc2cc(OCC(=O)O)c(Cl)c(Cl)c2C1=O the results were A647 fluor 2.27e-08, A488 autofl inactive, Resorufin autofl inactive, TSHR agonist -10.5% and AID923 -1.2%.
Screening O=C1c2ccccc2C(=O)N1CCCc1nc2ccccc2c(=O)n1-c1cccnc1 returned TSHR agonist -1.8% and AID923 0.7%.
Cc1ccc(-n2nnnc2SCC(=O)c2cc(C)n(-c3cc(C)on3)c2C)c(C)c1 was read as A647 fluor 2.61e-08, A488 autofl inactive, Resorufin autofl inactive, TSHR agonist 23.2%[11.4 µM] and AID923 1.5%.
For Cc1ccc2nc(S(=O)(=O)O)[nH]c2c1 the results were A647 fluor 3.34e-08, A488 autofl inactive, Resorufin autofl inactive, TSHR agonist 0.1% and AID923 -1.7%.
`N#Cc1c(N)c(C(=O)c2ccc(Br)cc2)n2c1CCC2` gave TSHR agonist 10.2% and AID923 0.0%.
For CCCCNC(=O)c1c[nH]c2ccc(S(=O)(=O)Nc3ccc(OCC)cc3)cc2c1=O the results were A647 fluor 2.62e-08, A488 autofl inactive, Resorufin autofl inactive, TSHR agonist -0.5% and AID923 0.6%.
For O=C(O)C(O)c1ccco1 (stereo not drawn) the results were A647 fluor 1e-09, A488 autofl inactive and Resorufin autofl inactive.
Screening COC(=O)c1sc(NC(=O)c2ccc(OC)cc2OC)nc1C returned A647 fluor 1.4e-09, A488 autofl inactive, Resorufin autofl inactive, TSHR agonist -4.3% and AID923 0.1%.
Screening COC(=O)c1cn(-c2ccccc2)nc1C(=O)OC returned A647 fluor 2.1e-09, A488 autofl inactive, Resorufin autofl inactive, TSHR agonist 3.6% and AID923 0.7%.

The final four entries of the section above come first, to join the parts:
For CCCCNC(=O)c1c[nH]c2ccc(S(=O)(=O)Nc3ccc(OCC)cc3)cc2c1=O the results were A647 fluor 2.62e-08, A488 autofl inactive, Resorufin autofl inactive, TSHR agonist -0.5% and AID923 0.6%.
For O=C(O)C(O)c1ccco1 (stereo not drawn) the results were A647 fluor 1e-09, A488 autofl inactive and Resorufin autofl inactive.
Screening COC(=O)c1sc(NC(=O)c2ccc(OC)cc2OC)nc1C returned A647 fluor 1.4e-09, A488 autofl inactive, Resorufin autofl inactive, TSHR agonist -4.3% and AID923 0.1%.
Screening COC(=O)c1cn(-c2ccccc2)nc1C(=O)OC returned A647 fluor 2.1e-09, A488 autofl inactive, Resorufin autofl inactive, TSHR agonist 3.6% and AID923 0.7%.
CC(NC(=O)NCC1CCCO1)(C(F)(F)F)C(F)(F)F (stereo not drawn) was read as A647 fluor 3.07e-08, A488 autofl inactive, Resorufin autofl inactive, TSHR agonist -9.0% and AID923 -0.5%.
Screening CCOc1ccc(-c2nc(=S)[nH][nH]2)cc1 returned A647 fluor 3.32e-08, A488 autofl inactive, Resorufin autofl inactive, TSHR agonist -4.6% and AID923 0.0%.
Cc1nnsc1NC(=O)OCC(C)C was read as A647 fluor 9.9e-09, A488 autofl inactive, Resorufin autofl inactive, TSHR agonist inconclusive and AID923 -0.2%.
Screening N[C@H](C(=O)O)c1ccc(C(=O)O)cc1 returned TSHR agonist 7.4% and AID923 -0.2%.
Screening CCCCC(=O)N1CC2(C)CN(C(=O)CCCC)CC(C)(C1)C2=O returned A647 fluor 1.51e-08, A488 autofl inactive, Resorufin autofl inactive, TSHR agonist 1.9% and AID923 -2.2%.
CC(=O)OC[C@@H]1O[C@@H](O/N=C2/C[C@@H](O)[C@@H](O)[C@@H]3[C@@H]4C(=O)N(c5cccc(Oc6ccccc6)c5)C(=O)[C@H]4CC[C@@H]23)[C@H](OC(C)=O)[C@H](OC(C)=O)[C@@H]1OC(C)=O was read as TSHR agonist -0.8%[11.4 µM] and AID923 0.6%[11.5 µM].
Cc1cc2cc3c(=O)[nH]c(=O)[nH]c3nc2cc1C was read as A647 fluor 1e-09, A488 autofl inactive, Resorufin autofl inactive, TSHR agonist -1.3%[11.4 µM] and AID923 3.1%[11.5 µM].
For CC(C)Oc1cccc(C(=O)Nc2ccccc2N2CCOCC2)c1 the results were A647 fluor 1e-09, A488 autofl inactive, Resorufin autofl inactive, TSHR agonist inconclusive and AID923 1.1%.
COc1ccc(-n2nnnc2SCC(=O)c2ccc(OC)c(OC)c2)cc1 was read as A647 fluor 2.6e-09, A488 autofl inactive, Resorufin autofl inactive, TSHR agonist inconclusive and AID923 -0.1%.
For O=C(Nc1nccs1)c1ccc(S(=O)(=O)c2ccccc2)cc1 the results were A647 fluor 1e-09, A488 autofl inactive, Resorufin autofl inactive, TSHR agonist -3.8% and AID923 -0.4%.
For O=C(NC1CS(=O)(=O)CC1NCc1ccco1)c1ccccc1 (stereo not drawn) the results were A647 fluor 4.1e-09, A488 autofl inactive, Resorufin autofl inactive, TSHR agonist -3.1%[11.4 µM] and AID923 -0.4%.
For C=CCc1cccc2cc(C(=O)NCc3cccnc3)c(=O)oc12 the results were TSHR agonist -1.7% and AID923 3.1%.
For COc1ccc(OC)c(C(=O)CSc2nc3ncccc3[nH]2)c1 the results were A647 fluor 8.2e-09, A488 autofl inactive, Resorufin autofl inactive, TSHR agonist 19.7% and AID923 -0.7%.
For COC(=O)c1ccccc1NC(=O)C1CCN(C(=O)c2cc(OC)cc(OC)c2)CC1 the results were A647 fluor 1e-09, A488 autofl inactive, Resorufin autofl inactive and AID923 1.8%.
Screening COc1cccc(N2C(=O)C3ON(c4ccccc4)C(c4cccs4)C3C2=O)c1 (stereo not drawn) returned TSHR agonist 11.6% and AID923 1.8%.
`CC(C)N1CCc2c(sc(N)c2C#N)C1` gave A647 fluor 1e-09, A488 autofl inactive and Resorufin autofl inactive.
Screening CC(C(=O)NCc1ccco1)n1nc(-c2ccccc2)c2cc(Cl)ccc21 (stereo not drawn) returned TSHR agonist inconclusive and AID923 -2.2%.
`CC(C)c1cc(C(=O)Nc2cccnc2)no1` gave A647 fluor 1.62e-08, A488 autofl inactive, Resorufin autofl inactive, TSHR agonist 13.5% and AID923 0.0%.
`COc1ccc(S(=O)(=O)N(C)C2CCN(C)CC2)cc1` gave TSHR agonist 7.5% and AID923 3.4%.
`COc1ccc2c(c1)CC(C1(O)C(=O)N(C)c3ccccc31)C2=O` (stereo not drawn) gave TSHR agonist inconclusive and AID923 0.5%.
For CCSc1nnc(NC(=O)c2ccc(C)o2)s1 the results were A647 fluor 1e-09, A488 autofl inactive, Resorufin autofl inactive, TSHR agonist -0.7% and AID923 -3.3%.
CS(=O)(=O)c1ccc2nc(NC(=O)Cc3ccccc3)sc2c1 was read as TSHR agonist -14.0% and AID923 1.3%.
O=C(Cn1cnc2c(cnn2-c2ccccc2)c1=O)N1CCOCC1 was read as TSHR agonist -2.3% and AID923 2.4%.
For CC1CCN(c2nc(-c3ccccc3)c(C#N)c(=O)[nH]2)CC1 the results were A647 fluor 3.9e-09, A488 autofl inactive, Resorufin autofl inactive, TSHR agonist 3.1% and AID923 0.2%.
Screening COc1ccc(-n2ccnc2SCC(=O)Nc2ccccc2)cc1 returned A647 fluor 1.38e-08, A488 autofl inactive, Resorufin autofl inactive, TSHR agonist inconclusive and AID923 0.0%.
O=C(COC(=O)CN1C(=O)C2CC=CCC2C1=O)Nc1cc(C(F)(F)F)ccc1N1CCOCC1 (stereo not drawn) was read as A647 fluor 1e-09, A488 autofl inactive, Resorufin autofl inactive and AID923 0.5%.
`Cc1ccc2cc(CN(CC3CCCO3)S(=O)(=O)c3cccc4nsnc34)c(=O)[nH]c2c1` (stereo not drawn) gave A647 fluor 3.8e-09, A488 autofl inactive, Resorufin autofl inactive, TSHR agonist -2.8% and AID923 -0.2%.
For Cc1cc(C(=O)COc2ncnc3sccc23)c(C)n1C the results were A647 fluor 1.63e-08, A488 autofl inactive, Resorufin autofl inactive, TSHR agonist inconclusive and AID923 1.2%.
N[C@@H](Cc1ccnnc1)C(=O)O was read as A647 fluor 1.7e-09, A488 autofl inactive, Resorufin autofl inactive, TSHR agonist 2.1%[11.4 µM] and AID923 -0.5%[11.5 µM].
Screening CC(=O)N1CCC2(CC1)CCN(C(c1ccccc1)c1ccccc1)CC2 returned A647 fluor 1e-09, A488 autofl inactive, Resorufin autofl inactive, TSHR agonist 9.1% and AID923 -0.6%.
For Cc1cc(C(=O)N(C)CC(=O)Nc2ccccc2C(F)(F)F)c(C)o1 the results were A647 fluor 3.24e-08, A488 autofl inactive, Resorufin autofl inactive, TSHR agonist 3.5% and AID923 0.4%.
Screening Cc1nc2ccccc2c(=O)n1C1CCCCCC1 returned A647 fluor 1e-09, A488 autofl inactive, Resorufin autofl inactive, TSHR agonist 1.2% and AID923 -0.6%.
For Nc1ccc2ncccc2c1N the results were A647 fluor 2.25e-08, A488 autofl inactive and Resorufin autofl inactive.
CC(C)(C)c1ccc(S(=O)(=O)NCCOCC(F)(F)C(F)F)cc1 was read as A647 fluor 1e-09, A488 autofl inactive, Resorufin autofl inactive, TSHR agonist -0.8% and AID923 -0.3%.
Screening CN1CCC(N(C)CC(=O)Nc2cccc(Oc3ccccc3)c2)CC1 returned A647 fluor 2.1e-09, A488 autofl inactive, Resorufin autofl inactive, TSHR agonist 2.1%[11.4 µM] and AID923 0.0%.
Screening O=C(CSc1nnc(Nc2ccccc2)s1)NCc1ccco1 returned A647 fluor 1.1e-09, A488 autofl inactive, Resorufin autofl inactive, TSHR agonist 7.8% and AID923 1.6%.
`CC1CC(C)CN(S(=O)(=O)c2ccc(C(=O)NCCCn3ccnc3)cc2)C1` (stereo not drawn) gave A647 fluor 5.1e-09, A488 autofl inactive, Resorufin autofl inactive, TSHR agonist -2.4% and AID923 -1.3%.
Screening C=CCN1C(=O)C(O)(CC(=O)c2ccc(Cl)cc2)c2ccccc21 (stereo not drawn) returned TSHR agonist -8.9% and AID923 1.0%.
`CCOC(=O)c1cc2c(ccn2-c2ccc(F)cc2)n1CC(=O)N1CCN(C(=O)c2ccco2)CC1` gave A647 fluor 3.34e-08, A488 autofl inactive, Resorufin autofl inactive, TSHR agonist inconclusive and AID923 -0.6%.
For CC1=CC(C)(C)N(C(=O)CN2C(=O)c3ccccc3C2=O)c2ccccc21 the results were TSHR agonist inconclusive and AID923 1.4%.
CCCCOc1ccc(S(=O)(=O)Nc2cc(OC)ccc2OC)cc1 was read as TSHR agonist inconclusive and AID923 -2.4%.
CCCCCn1c(Sc2nc3ccccc3s2)nc2c1c(=O)[nH]c(=O)n2C was read as A647 fluor 1e-09, A488 autofl inactive, Resorufin autofl inactive, TSHR agonist inconclusive and AID923 0.6%.
`CN(CCO)C(=O)c1cccc2c1-c1ccccc1C2=O` gave A647 fluor 1.23e-08, A488 autofl inactive, Resorufin autofl inactive, TSHR agonist -0.9% and AID923 1.9%.

Screens deposited in PubChem BioAssay by National Center for Advancing Translational Sciences (NCATS).
